Source: PubChem (Fisher Drug Discovery Resource Center)
NPYLR7 agonist: activates Aedes aegypti NPYLR7 receptor; HEK293T NPYLR7/Galpha15, GCaMP6s calcium fluorescence; activation, % at 10 µM; 0.15% of 270,000 active; in the data active = activation above about 40%;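 also: 0% = vehicle and 100% = reference agonist at the receptor; some compounds past the cut are filed as inactive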
NPYLR7 agonist max-min: recorded beside NPYLR7 agonist, whose call it bears; activation, %; measured here: Max-Min RFU normalised activation; some inactives read as strong as hits;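 span of the calcium signal over five minutes; 0% = vehicle and 100% = native peptide agonist; compound fluorescence can raise it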
* = called active by the depositor.

SMILES	NPYLR7 agonist	NPYLR7 agonist max-min
CC1=C(C(=O)Nc2ccccc2)C(c2ccc(Br)cc2)n2nc(CCCO)nc2N1 (stereo not given)	0	-5
CN(Cc1cn(Cc2ccccc2)nc1-c1ccc2c(c1)OCO2)C1CCOC1 (stereo not given)	0	-3
CCN(CC)C(=O)Cc1ccc(NC(=O)NC(C)CCN(C)C)cc1 (stereo not given)	-2	8
O=C(CSc1nc(=O)n(Cc2ccncc2)c2c1CCC2)NCC1CCCO1 (stereo not given)	30	17
O=S(=O)(NCCc1cccs1)c1c(Cl)cc(Br)cc1Cl	0	1
O=C(c1ccc([N+](=O)[O-])o1)N(Cc1cccnc1)c1nc2ccc(Br)cc2s1	-1	7
CC(O)(c1cccnc1)c1nc(-c2ccc3ccccc3c2)cs1 (stereo not given)	6	1
O=C(NNC(=S)NC1CC1)C(=O)NNC(=S)NC1CC1	4	3
Cc1cc(CN(C)C(=O)[C@H]2C[C@@H](C(=O)O)N(C)[C@H]2c2ccccc2F)no1	5	0
COc1ccc2sc(N(CCN3CCOCC3)C(=O)c3ccc([N+](=O)[O-])o3)nc2c1	11	5
COC(=O)c1ccccc1C(=O)N1CCCC(C(=O)c2ccccc2OC)C1 (stereo not given)	4	2
CC(C)NC(=O)CNC(=O)CSc1cccs1	4	2

Overlap with the part before: two compounds, then new ones.
SMILES	NPYLR7 agonist	NPYLR7 agonist max-min
COC(=O)c1ccccc1C(=O)N1CCCC(C(=O)c2ccccc2OC)C1 (stereo not given)	4	2
CC(C)NC(=O)CNC(=O)CSc1cccs1	4	2
CC1(C(=O)Nc2ccc3c(c2)OCCO3)CCN1C(=O)C1(c2ccc(Cl)cc2)CCC1 (stereo not given)	15	14
Cc1ccc(NC(=O)N(Cc2ccccn2)C2CC2)c(C)c1	0	0
O=S(=O)(Nc1ccc(OC(F)(F)F)cc1)c1ccc(F)c(F)c1	10	7
CCOC(=O)c1ccc2c(c1)nc(SCc1cc(C(F)(F)F)cc(Cl)c1F)n2CCOC	-1	-6
Cc1ccnc(SCc2cc(=O)c(OC(=O)c3ccc4c(c3)OCO4)co2)n1	-13	-6
CCc1nc2n(n1)C(=O)C(C(c1cccc(C(F)(F)F)c1)N1CCOCC1)S2 (stereo not given)	-3	-7
CN(C(=O)/C=C/c1cccc(C(F)(F)F)c1)c1ccc(-c2onc3c2CCc2ccccc2-3)cc1	6	1
CC1=NN(c2ccccc2)C(=O)/C1=C\c1ccccc1	-7	-12
Cc1nc2nc(Cc3c(C)nn(-c4ccccc4)c3C)cc(=O)n2[nH]1	0	-3
Cn1c(=O)[nH]c(=O)c2[nH]c(SCC(=O)O)nc21	1	-1
O=C(c1cn(Cc2ccc(F)cc2)nn1)N(CC1CCC1)CC1CCCO1 (stereo not given)	3	-1
O=C(NCC1CCCN(Cc2cccn2-c2cccnc2)C1)c1n[nH]c2ccccc12 (stereo not given)	8	7

Ordered by SMILES length (rising): four of the compounds above
SMILES	NPYLR7 agonist	NPYLR7 agonist max-min
CC1=NN(c2ccccc2)C(=O)/C1=C\c1ccccc1	-7	-12
Cn1c(=O)[nH]c(=O)c2[nH]c(SCC(=O)O)nc21	1	-1
CCc1nc2n(n1)C(=O)C(C(c1cccc(C(F)(F)F)c1)N1CCOCC1)S2 (stereo not given)	-3	-7
CC1(C(=O)Nc2ccc3c(c2)OCCO3)CCN1C(=O)C1(c2ccc(Cl)cc2)CCC1 (stereo not given)	15	14

Individual results from the list:
CC1=C(C(=O)Nc2ccccc2)C(c2ccc(Br)cc2)n2nc(CCCO)nc2N1 (stereo not given) in NPYLR7 agonist → 0
O=C(NNC(=S)NC1CC1)C(=O)NNC(=S)NC1CC1 in NPYLR7 agonist → 4
CCOC(=O)c1ccc2c(c1)nc(SCc1cc(C(F)(F)F)cc(Cl)c1F)n2CCOC in NPYLR7 agonist max-min → -6
CC(O)(c1cccnc1)c1nc(-c2ccc3ccccc3c2)cs1 (stereo not given) in NPYLR7 agonist max-min → 1
CC1(C(=O)Nc2ccc3c(c2)OCCO3)CCN1C(=O)C1(c2ccc(Cl)cc2)CCC1 (stereo not given) in NPYLR7 agonist → 15

(continued)
SMILES	NPYLR7 agonist	NPYLR7 agonist max-min
COc1ccccc1N1C[C@@H]2C[C@@H](c3ccc(C#CCCO)cc3)N3CCC[C@@]23C1=O	5	2
O=C(NCc1ccccn1)c1cccnc1Oc1ccc(Cl)cc1	-9	-15
CCCS(=O)(=O)c1c(S(=O)(=O)CCC)c2ccccn2c1C(=O)N/N=C\c1ccncc1	0	-1
C[C@H](CCC(=O)N1CCC2(CC1)OCCO2)[C@H]1CC[C@H]2[C@@H]3C(=O)C[C@@H]4CC(=O)CC[C@]4(C)[C@H]3CC(=O)[C@]12C	-7	-13
COCCN(CC(=O)N1CCc2sccc2C1COc1cccc(F)c1)C(=O)c1cccc(OC)c1 (stereo not given)	-2	3
CCCCc1ccc(S(=O)(=O)NC(=O)C2(C)CCN2C(=O)C/C=C/c2ccccc2)cc1 (stereo not given)	3	2
CCCC(=O)N1CCC1(C)C(=O)NCc1cc(F)ccc1F (stereo not given)	2	2
Cc1nn(CC(=O)Nc2ncc(Cl)cc2Cl)c(C)c1[N+](=O)[O-]	-11	-17
Cc1ccnn1-c1ccc(C(=O)NCCC(=O)N2CCCC2)cc1	0	-2
CC(=O)Nc1cccc(NC(=O)CSc2nc(=O)n(CC3CCCO3)c3c2CCC3)c1 (stereo not given)	-2	-6
COc1ccc(C(=O)NCCN2CCn3cc(OCc4ccccc4)c(=O)cc3C2=O)cc1	6	3
Cc1cc(NC(=O)CN2CCCC2c2cccc(N(C)C)c2)on1 (stereo not given)	-25	-27
N[C@@H](CCC(=O)N[C@@H](CCSC(CC(=O)O)C(=O)O)C(=O)NCC(=O)O)C(=O)O (stereo not given in full)	-7	-10
CNC(C(=O)O)c1ccccc1C(F)(F)F (stereo not given)	-1	-3
Cc1ccc(CNC(=O)c2cn(C)c3c(=O)n(-c4ccc(Cl)cc4)c(=O)[nH]c23)cc1	4	4
Cc1cccc(OC(C)C(=O)Nc2ccc(Cl)cc2F)c1 (stereo not given)	-5	-8
Cc1ccc2oc(-c3ccc(Cl)cc3OS(C)(=O)=O)nc2c1	-1	12
Cc1ccc(C)c(OC(C)C(=O)N(C)Cc2nc3ccccc3[nH]2)c1 (stereo not given)	14	1
CN1CCC(O)(CNc2ccnc(C(=O)NCc3cccnc3)c2)CC1	9	8
CCOC(=O)c1cc(-c2ccc(OC)cc2)n(C2CCN(C(=O)c3c(-c4c(F)cccc4Cl)noc3C)CC2)n1	18	12
CN(C)c1ccc(NC(=O)c2cccc(F)c2)cc1CN(CC1CCCO1)C(=O)C1CC1 (stereo not given)	21	36
O=C(Nc1ccc(F)c(F)c1F)N1CC(=O)N2CCc3c(F)cccc3C2C1 (stereo not given)	26	10
CC(C)(C)c1cc2nc(-c3ccccc3)cc(C(=O)NCc3ccccn3)n2n1	-11	-5
CCOC(=O)C1CCCCN1CC(=O)N1N=C(c2ccc(C)c(C)c2)CC1c1ccc(Cl)cc1 (stereo not given)	-8	10

Compound profiles (already shown). Screens in order: NPYLR7 agonist | NPYLR7 agonist max-min
Cc1ccc(NC(=O)N(Cc2ccccn2)C2CC2)c(C)c1 across the screens: 0 | 0
CC1=C(C(=O)Nc2ccccc2)C(c2ccc(Br)cc2)n2nc(CCCO)nc2N1 (stereo not given) across the screens: 0 | -5
Cc1ccnc(SCc2cc(=O)c(OC(=O)c3ccc4c(c3)OCO4)co2)n1 across the screens: -13 | -6
CCCC(=O)N1CCC1(C)C(=O)NCc1cc(F)ccc1F (stereo not given) across the screens: 2 | 2
COCCN(CC(=O)N1CCc2sccc2C1COc1cccc(F)c1)C(=O)c1cccc(OC)c1 (stereo not given) across the screens: -2 | 3

Other records follow.
SMILES	NPYLR7 agonist	NPYLR7 agonist max-min
O=C(C1CCCC1)N(CC(=O)N1CCc2sccc2C1COc1ccc(Cl)cc1)CC1CCCO1 (stereo not given)	1	7
CC(C)S(=O)(=O)N1CCC(C(NC(=O)c2ccc3c(c2)OCO3)C(=O)N2CCCC2)CC1 (stereo not given)	9	13
Cc1nn(CC(=O)N2CCCC2)c(=O)c2cc3sccc3n12	8	6
COc1ccc(CCNC(=O)c2c(C)noc2-c2cccnc2)cn1	-6	0
CCC(=O)Nc1noc2ncccc12	2	1
CCOc1ccccc1NC(=O)N1CCC[C@H]1C(=O)N1CCC(C(=O)NCc2cccc(OC)c2)CC1	7	10
Cc1ccc(/C=C/C(=O)N(Cc2cccs2)C2CC2)s1	8	5
N#Cc1cc(S(=O)(=O)N2CCOCC2)ccc1F	25	14
CCC(=O)N1CCCC1(C)C(=O)NCc1cc(F)ccc1F (stereo not given)	5	2
COc1cccc(CNC(=O)C2CCN(C(=O)[C@@H]3CCCN3C(=O)/C=C/c3ccc(OC(F)(F)F)cc3)CC2)c1	7	16
Cc1ccc(NS(=O)(=O)c2c(F)cccc2F)cc1S(=O)(=O)N(C)C	-3	-3
CCC1C=CCN1C(=O)c1cnn2cc(CN(CC)CC)cnc12 (stereo not given)	4	4
O=C(CNC(=O)c1ccc(Oc2ccccc2)cc1)NC1CCC(O)CC1 (stereo not given)	5	0
C=CCOCC(O)CN(Cc1ccccc1Cl)CC1CC(c2ccc3c(c2)OCO3)=NO1 (stereo not given)	-3	-2
CN(CCC(N)=O)C(=O)c1cc2c(-c3ccccc3)nn(C)c2s1	-10	-13
CCOc1cccc(CN2CCN(C3CCCC3)C(CCO)C2)c1 (stereo not given)	7	6
Cc1cc(C)c2nc(N(Cc3cccnc3)C(=O)c3ccc(S(=O)(=O)N(C)C)cc3)sc2c1	-11	-8
CCNC(=O)C1CCN(C2CCc3c(F)ccc(F)c32)CC1 (stereo not given)	-15	-19
Cn1nnnc1SCc1nc(-c2cccc(C(F)(F)F)c2)no1	0	-1
CC(C)CC(=O)C(=O)N1CCC2(CCCN(CC3CCCCC3)C2=O)C1 (stereo not given)	-1	-4
O=C(COCc1ccccc1)NCCNc1nc(C2CC2)nc2cc(Cl)ccc12	6	10
O=c1c2cnc(N3CCOCC3)nc2ccn1-c1ccc(Cl)c(Cl)c1	5	6
CCOC(=O)c1cnc2cc(C(F)(F)F)ccc2c1N1CCN(C(C)=O)CC1	3	6
COc1cccc(C2(C(=O)NCc3cnn(C)c3)CCCC2)c1	4	1
CCC(C(=O)Nc1ccc(N2CCN(c3ccccc3OC)CC2)c(C(=O)NC(C)c2ccccc2)c1)c1ccccc1 (stereo not given)	0	13
S=C(Cc1nc(-c2ccccc2)cs1)N1CCOCC1	3	1
c1cc2c(cc1OC1CCNCC1)CCC2	0	-2
CCCCOc1ccc(CSc2nnc(CC)n2N)cc1[N+](=O)[O-]	-4	-8
Cc1ccc(-n2nnc3c(N4CCN(C(=O)Cc5cccc(C)c5)CC4)ncnc32)cc1	-5	-12
COc1ccc(Nc2nc(NCc3ccccc3OC)nc3[nH]ncc23)cc1	2	2
CC(C)CNC(=O)C1(C)CCCN1C(=O)c1ccc2sccc2c1 (stereo not given)	4	1
CCOC(=O)C1(C)CCCN1C(=O)c1ccc(N(C)C)cc1 (stereo not given)	2	-1
CC1CCCCC1NC(=S)N1CCC(C(N)=O)CC1 (stereo not given)	-2	2
Cc1cc(C(=O)OCC(=O)NN2C(=O)NC3(CCC(C)CC3)C2=O)c(C)o1 (stereo not given)	1	4
CCc1c2ccc(C)n2cc[n+]1C	-14	-22
CSc1ccc(C2NC(=O)c3c(sc4c3CCN(C)C4)N2)cc1 (stereo not given)	12	8
CN(/N=C\c1ccc([N+](=O)[O-])cc1)c1nc(-c2cc3ccccc3oc2=O)cs1	-9	-17
CC(=O)c1ccccc1-c1ccc(-c2ccnc(C)c2-c2nn[nH]n2)cc1	6	4
Cc1cnc(CN(C)C(=O)CCCc2nc(-c3ccccc3C)no2)[nH]1	5	3
Cn1nc(C(C)(C)C)cc1C(=O)N1CCCCC1c1cc(C(=O)N2CCOCC2)no1 (stereo not given)	-1	-3
CCOC(=O)CC(C)=NNC(N)=S	3	3
COc1ccc(C(CC(=O)N(C)CCc2ccc(OC)c(OC)c2)c2c[nH]c3ccccc23)c(OC)c1 (stereo not given)	-4	1
COc1ccc(N2CCN(C(=O)c3csc(CSc4nnc(-c5ccccc5Cl)n4-c4cccc(Cl)c4)n3)CC2)cc1	20	30
CCc1c(C)nc(-c2cccc(C(F)(F)F)c2)nc1N1CCN(C(=O)c2ccc(Cl)c(Cl)c2)CC1	-3	3
Clc1ccccc1N=c1oc2ccc(Br)cc2cc1-c1nc2ccccc2[nH]1	0	-5
O=C(O)C1CCCN1C(=O)CN1C(=O)C2C3C=CC(C3)C2C1=O (stereo not given)	16	11
CC(=O)Nc1ccc(S(=O)(=O)N2CCN(Cc3cc(=O)c(OCc4ccc(-c5ccccc5C#N)cc4)co3)CC2)cc1	3	-2
CC1CCCCN1CCCNC(=O)Nc1cccc2ccccc12 (stereo not given)	2	-1
COc1cc2c(cc1OC)C(C(C)NC(=O)C1CC1)N(Cc1ccccc1C)CC2 (stereo not given)	2	11
CSc1nc2nc(C)c(CCC(=O)NCCc3ccccc3)c(C)n2n1	3	1
CC(C)CCN(Cc1cccn1C)CC(O)COCC(C)C (stereo not given)	-1	7
Cc1ccc(-c2nc(NCCN3CCOCC3)c3ccccc3n2)cc1	23	24
CC1(C)O[C@]23C[C@H]1C[C@H](OC(=O)c1ccoc1)[C@]2(C)[C@@H](OC(=O)c1ccoc1)CCC3(C)O (stereo not given in full)	-17	-23
CSc1nc(N2CCCCC2)c2cnn(CCN)c2n1	-1	-3
N#Cc1c(-c2ccc(F)cc2)cc(-c2cccnc2)nc1N	12	10
Cc1ccc(-n2nc(C(=O)NCC3CC3)c(=O)n(Cc3cccc(F)c3)c2=O)cc1C	16	11
CCOCCOc1nc(-c2ccccc2F)n(-c2ccc(NS(=O)(=O)c3ccc(C)cc3)cc2)n1	15	18
Cc1nnc(SCC(=O)Nc2sc3c(c2C#N)CCC3)s1	1	-1
CCc1[nH]n(-c2ccc(Cl)c(Cl)c2)c(=O)c1C1=C([n+]2cccc(C)c2)C(=O)N(CCOC)C1=O	11	13
CC(CC#N)NC(=O)c1c(-n2cccc2)sc2c1CCSC2 (stereo not given)	5	3
c1ccc(-n2c(SCc3cn4ccsc4n3)nc3ccccc32)cc1	-7	-8
Cc1cccc(CO[C@]2(C(=O)NC3CC3)CC(OCc3c(F)cccc3F)[C@H](O)[C@H](O)C2)c1 (stereo not given in full)	16	14

Some of the compounds tested, so the mix of outcomes need not match the whole.
